Ab BasE inh: blocks the Acinetobacter baumannii siderophore enzyme BasE; inhibition, % (test concentration not listed); purified BasE, fluorescence polarization binding displacement; 84,000 tested, 0.1% active;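 active = both replicates above 25% with normal brightness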;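 note: 0% = negative plate control signal and 100% = positive plate control signal; stock transfer was 100 nL into about 30 µL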
KSHV LANA nucl: LANA-nucleosome interaction inhibition; AID 720717; z-score (no concentration beside the values); 51,000 tested, 0.3% active; FITC-LANA1-23 / chicken nucleosome fluorescence polarization; hits give low values;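 active = both repeat wells score below -2 in polarization z-score versus plate sample wells, excluding overly bright wells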;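 note: 100 nL library stock added to about 30 µL; numbers are from one replicate; some results filed as inactive read as strong as hits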
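System – purified chicken nucleosomes with FITC-labelled LANA N-terminal peptide (1-23) · Amount – 240 nM purified chicken nucleosomes (480 nM peptide binding sites), final · Also added – 50 nM FITC-LANA1-23 probe · Medium – TEN-BT buffer, pH 7.5 · Incubation – compound with peptide–nucleosome mix 10–45 min at room temperature · Detection – fluorescence polarization, ex 480 nm, em 535 nm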
An asterisk follows results filed as active; . = not tested or not shown. An excerpt; rates above refer to the full screens.

SMILES	Ab BasE inh	KSHV LANA nucl
Nc1ccccc1-c1nnn(CC(=O)NC2CCCC2)n1	-0.2	-0.76
COc1ccc(C(=O)Nn2cnnc2)cc1	.	-0.4
C/C(=N\OCC(=O)Nn1c(=O)[nH]c2ccccc2c1=O)c1ccccc1	-0.1	0.24
CN(C)S(=O)(=O)Cc1ccccc1Cl	-0.8	0.45
NC(=O)CCNCc1ccccc1	1.3	.
Cc1cc(C(=O)COC(=O)c2ccc(NC(=O)CC#N)cc2)c(C)n1-c1ccc2c(c1)OCCO2	-11	.
Cc1cc(-c2ccc(C)c(S(=O)(=O)N(C)C3CCCCC3)c2)on1	3.1	.
Oc1c(Cl)cc(Cl)cc1C=Nc1ccc2n[nH]nc2c1	-1.4	.
O=C(NCc1ccco1)c1cc(F)cc2c1OCOC2	14	.
Cn1c(=O)c2c(nc(N3CCNCC3)n2C)n(C)c1=O	0.3	0.3
Cc1ccc(C(=O)CSc2nnc3[nH]c(=O)c(C)nn23)cc1	-0.4	-1.3
Cc1ccc(-n2nc(C)c3c(C(=O)NC4CCCC4)cc(C)nc32)cc1	3.3	.
Cc1cc2c(N=NC(=O)C3CC34CCC4)c(O)[nH]c2cc1Br (configuration not stated)	-1.3	-0.075
O=S(=O)(c1ccccc1)N1CC=C(c2ccccc2)CC1	.	-0.097
O=C1CC(c2ccc3c(c2)OCO3)c2c(c3ccccc3n(-c3ccccc3)c2=O)O1 (configuration not stated)	-0.6	2.5
Cc1sc(NC(=O)CN2CCc3ccccc32)c(C#N)c1C	.	0.59
Cc1nc2sc(C(c3ccc(Cl)c(Cl)c3)N3CCCC3)c(O)n2n1 (configuration not stated)	-1.8	0.82
CCN(Cc1ccc2c(c1)OCCO2)C(=O)c1ccccc1C(=O)N(C)C1CCCCC1	1.9	.
NS(=O)(=O)c1ccc(C(=O)Nc2cccc(-c3ccc4nncn4n3)c2)cc1	0.6	1.3
COc1ccc(N=C2SC(C(N)=O)CC(=O)N2Cc2ccccc2)cc1 (configuration not stated)	0.7	-0.17

Pulled one by one from the entries so far (two):
SMILES	Ab BasE inh	KSHV LANA nucl
Oc1c(Cl)cc(Cl)cc1C=Nc1ccc2n[nH]nc2c1	-1.4	.
COc1ccc(C(=O)Nn2cnnc2)cc1	.	-0.4

(list continues)
SMILES	Ab BasE inh	KSHV LANA nucl
O=C(Nc1ccc(C(F)(F)F)cc1)C1=NCCN1	2.9	0.57
CC(C)(C)C(=O)N1c2ccccc2CCc2ccccc21	-1.9	-0.6
Cc1c(/C=C2/N=C(c3ccccc3)OC2=O)cc(C#N)n1C	-2.7	.
O=C1[C@H]2CCCC[C@H]2C(=O)N1CCCCN1CCN(c2nsc3ccccc23)CC1	.	0.27
O=C(COC(=O)c1cc2ccccc2cc1O)c1ccc(OCc2ccccc2)cc1	1.1	.
Cc1ccc(N(C)S(=O)(=O)c2cc3[nH]c(=O)c(=O)[nH]c3cc2C)cc1	-0.7	0.43
O=C1CC(c2ccc(Cl)cc2)n2ncnc2N1 (configuration not stated)	2.5	.
c1ccc(CN2CCN(CCN3CCCCC3)CC2)cc1	2.4	0.15
CC1CCCCN1C(=O)c1cc2ccccc2oc1=O (configuration not stated)	-2.3	0.54
COc1cc(NC(=O)COCc2cc(-c3ccc(F)cc3)on2)c(OC)cc1Cl	0.8	-2
O=C(NC1(O)C(=O)c2ccccc2C1=O)c1ccc(C(F)(F)F)cc1	0.8	-0.96
CC1CCCC(C)N1C(=S)NCCCN1CCOCC1 (configuration not stated)	0.1	.
CC(Nc1ccc(-n2cnnn2)cc1)C(=O)N1CCN(Cc2ccccc2)CC1 (configuration not stated)	0.4	.
CN(C)C(=O)COC(=O)C1c2ccccc2Oc2ccccc21	0.5	.
C=CCn1c(SCc2nnc(SCC(=O)c3ccc(Cl)cc3)o2)nnc1-c1ccccc1	-3.9	.
O=C(OCc1cc(=O)n2cc(Br)ccc2n1)C1COc2ccccc2O1 (configuration not stated)	-1.6	.
Cc1ccccc1CS(=O)(=O)c1cnc2ccccc2n1	.	-0.28
CCN(Cc1nc2cc(OC)c(OC)cc2c(=O)[nH]1)C(=O)c1ccc(S(=O)(=O)N(C)C)cc1	-0.6	.
COC(=O)c1ccc(COc2ccc(F)cc2)cc1	-0.2	-1.2
CCC(=O)NCCSc1ncc(-c2ccccc2)[nH]1	-2.9	1.4
CCCn1c(SCC(=O)N2CCC(C)Sc3ccccc32)n[nH]c1=O (configuration not stated)	-0.8	.
S=c1nc(-c2cccs2)[nH]n1CN1CCCC1	-2.5	.
CC(C)(C)N1CC(c2nc3ccccc3[nH]2)CC1=O (configuration not stated)	-0.4	-0.32
Cn1c(=O)c2c(nc(NN=C3CCCCC3)n2C)n(C)c1=O	0.7	-0.073
Cc1cc(C(=O)N2CCN(C(c3ccccc3)c3ccccc3)CC2)nn1C	.	-1.6
O=S(=O)(Nc1ccc(O)cc1)c1ccc2oc3ccc(S(=O)(=O)Nc4ccc(O)cc4)cc3c2c1	7.0	-0.51
CC(=O)Nc1cc(Cl)c(C)cc1N	.	-0.29
CC(=O)NC1(c2cccc(F)c2)CCN(C(=O)NCc2ccccc2)CC1	5.5	-0.5
O=C(Nc1cccc(C(F)(F)F)c1)c1cccc(S(=O)(=O)N2CCCC2)c1	-1.3	0.59
O=C(Nc1ccccc1-c1nc2ccccc2s1)C1CCCN1S(=O)(=O)c1cccs1 (configuration not stated)	-2.1	0.88
CC(C)(C)OC(=O)N1CCC(CNS(=O)(=O)c2ccc3c(c2)OCCO3)CC1	-0.2	.
CCN(CC)C(=O)C(c1ccccc1)n1nnc(-c2ccc(Br)cc2)n1 (configuration not stated)	-2.2	.
Cc1cc(CN2CCS(=O)(=O)CC2)no1	.	-1.2
O=C(O)CN1C(=O)CCC1=O	1.1	-0.61
CCOc1ccc2oc(=O)cc(Cn3c(=O)c(OCC)nc4cccnc43)c2c1	4.0	-1.2
O=C(Cn1cc(S(=O)(=O)N2CCCC2)ccc1=O)Nc1ccc(N2CCCCC2)cc1	0.3	.
CCOC(=O)c1c(NCC(=O)N2CCOCC2)sc2c1CC(C)(C)NC2(C)C	0.2	.
CCN(CC)Cc1c(C(=O)N/N=C(\C)c2ccc(O)cc2)nnn1-c1nonc1N	-1.2	0.059
N#CC(C#N)=Cc1cn(CCOc2ccc3c(c2)OCO3)c2ccccc12	-0.5	0.5
CCSc1nnc(C2CCN(Cc3ccncc3)CC2)n1C	4.6	0.31
FC(F)(F)Oc1ccccc1-c1nnc(-c2ccccc2Cl)o1	3.1	.
c1ccc(CN2CCC(c3nc4ccccc4[nH]3)CC2)cc1	0.2	0.26
Cc1cc(=O)[nH]c(Nc2cccc(Br)c2)n1	-0.4	0.38
N#CCCN(Cc1ccco1)C(=O)Nc1ccccc1	-0.8	0.0005
Cc1ccc(C(=O)CSc2nc(C)cc(C)c2C#N)cc1	0.0	-1.4
CC(=O)N1c2ccccc2C(=O)C1Sc1nc(C)cc(C)n1 (configuration not stated)	-0.9	-0.45
CSc1ccccc1NC(=O)C1COc2ccccc2O1 (configuration not stated)	0.4	-0.68
c1ccc(OCCSC2=NCCN2)cc1	-1.3	0.87
O=C(O)C1CCCN1S(=O)(=O)c1ccc2ccccc2c1 (configuration not stated)	1.0	-1.5
CS(=O)(=O)N1CCc2cc(C(=O)N3CCCC3)ccc21	-0.5	-0.2
(next part)
SMILES	Ab BasE inh	KSHV LANA nucl
CCOC(=O)c1cccc(C(=O)OCC)n1	-1.0	0.74
COc1cccc(CNC(=O)CN(C)S(=O)(=O)c2ccc3c(c2)CC(C)N3C(C)=O)c1 (configuration not stated)	0.8	-0.77
Cc1ccc2nc(SC(C)C(=O)NCc3ccco3)[nH]c2c1 (configuration not stated)	-2.3	.
COc1ccc(-c2noc(CC(=O)NCCN(C)C)n2)cc1	0.5	0.36
Nc1nc(CSCc2ccco2)nc(N2CCCCC2)n1	1.1	-0.61
O=C(O)CCNC(=O)C(c1ccccc1)c1ccccc1	-0.1	-0.48
O=C1Nc2ccccc2N(O)N1c1ccccc1Cl	-0.1	-1.2
Nc1ccc(S(=O)(=O)N2CCCCCC2)cc1	-0.8	-0.71
NC(=O)CC1C(=O)N(c2ccc(Cl)cc2)C(=S)N1Cc1cccnc1 (configuration not stated)	4.1	0.002
CCOC(=O)C(C#N)C1C(=O)Nc2ccccc21 (configuration not stated)	-0.1	.
O=C(Nc1ccc(-c2nc3ccccc3c(=O)o2)cc1)C1CC1	2.8	0.12
CC(C)n1ncc2c(C(=O)N(C)Cc3ccco3)cc(-c3ccccc3)nc21	1.8	.
Clc1cccc(CNCc2cccs2)c1	-3.4	2.8
CC(C)(CO)NC(=O)c1cc(-c2ccc(Cl)cc2Cl)on1	-1.4	-0.034
O=C(NCc1ccccc1)NC1(C(=O)NCC2CCCO2)CCCCC1 (configuration not stated)	1.4	0.12
COc1ccc(Oc2nccnc2C#N)cc1	1.3	-1.1
S=c1[nH]nc(NNc2ccccc2)n1Nc1ccccc1	-0.9	-0.37
CN(Cc1ccccc1)C1CCN(CCc2ccccc2)CC1	-2.4	-0.043
CCOC(=O)C1Sc2nnc(C)n2NC1c1ccc2c(c1)OCO2 (configuration not stated)	0.3	-0.82
Clc1ccc2ncnc(NCc3ccc4c(c3)OCO4)c2c1	-0.8	-0.31
N/C(CCN1CCOCC1)=N/O	-4.5	1.9
O=C(COC(=O)c1ccco1)Nc1ccc(Br)cc1	2.6	.
CCCCc1nc2sc3c(Cl)ncnc3c2c2c1COC(C)(C)C2	1.4	.
O=C(O)CC(Sc1ncnc2sc3c(c12)CCCC3)C(=O)O (configuration not stated)	-3.5	.
Cc1ccc2nc(Cl)c(/C=N/NC(=O)c3cccnc3)c(=O)n2c1	2.7	.
Cc1[nH]n(-c2ccccc2)c(=O)c1CC(=O)O	1.4	-0.16
Cc1cc(C)nc(NS(=O)(=O)c2ccc(NC(=O)CN3C(=O)C4CC=CCC4C3=O)cc2)n1 (configuration not stated)	-0.6	.
CCc1c(C)sc(NC(=O)c2cc(CC(C)C)on2)c1C#N	1.8	-0.15
CCc1ccc(NS(=O)(=O)c2cc(Br)cnc2N)cc1	9.3	-1.5
N#Cc1cc(-c2ccc(Cl)cc2)no1	3.0	0.17
O=C(c1cc2ccccc2cc1OCc1nnc(-c2cccs2)o1)N1CCOCC1	0.7	.
COc1ccc(/C=C2\SC(=O)N(CCNC(=O)c3nn(C)c(=O)c4ccccc34)C2=O)cc1	-1.9	.
COC(=O)C(C)N1C(=O)S/C(=C/c2ccc(N3CCCCCC3)o2)C1=O (configuration not stated)	-1.2	.
Cc1cccc(CN2CCN(CC(=O)N3CCN(c4cccc(C)c4)C(C)C3)C2=O)c1 (configuration not stated)	1.0	0.11
Cc1ccc(C)c(SC(C(=O)NC(N)=O)C(C)C)c1 (configuration not stated)	-1.4	.
O=C1CCCC2=C1C(c1ccc3c(c1)OCO3)c1c(ccc3ncccc13)N2 (configuration not stated)	5.1	-0.97
COc1ccc(CCn2c(SCc3cc(C)on3)nc3sc4c(c3c2=O)CCCC4)cc1OC	-0.3	.
Cc1sc(NC(=O)c2ccco2)c(C(c2cccnc2)N2CCCC2)c1C (configuration not stated)	0.6	.
O=C(c1cccs1)N1CCCC(c2nc3c(nnn3Cc3ccc(F)cc3)c(=O)[nH]2)C1 (configuration not stated)	-3.0	2.2
Cc1ccc(C(=O)c2cc(C)sc2NC(=O)CN2CCN(C(=O)c3ccco3)CC2)cc1	0.1	2.5
Cc1cc(=O)oc2ccc(OC(=O)CC(C)C)cc12	0.8	0.48
Cc1ccc(C(=O)CC2OC(=O)c3ccccc32)o1 (configuration not stated)	2.7	-0.073
CN(C=O)CP(=O)(O)CN1CCOCC1	1.6	-0.48
CC(=O)n1cc(-c2ccncc2)c2ccccc21	-0.2	.
CCn1c(SCc2ccccc2OC)nc2cc(S(N)(=O)=O)ccc21	-1.8	.
CCC(=O)N1CCc2cc(S(=O)(=O)Nc3ccccc3OC)ccc21	1.9	-0.054
COc1ccc(OC)c(NC(=O)c2oc3ccccc3c2NC(=O)CC(C)(C)C)c1	-0.7	-0.4
CC(=O)N1CCc2c(sc(NC(=O)c3ccc(Br)s3)c2-c2nc3ccccc3s2)C1	-3.7	-0.75
Cc1cc(S(=O)(=O)NC23CC4CC(CC(C4)C2)C3)ccc1-n1cnnn1	0.5	0.081
c1ccc(C(Cc2nc(-c3cccnc3)no2)c2ccccc2)cc1	0.7	0.53
c1csc(-c2nc(SCC3COc4ccccc4O3)n[nH]2)c1 (configuration not stated)	-5.9	.

Rewritten as a markdown table: 7 of the compounds above
| Compound | Ab BasE inh | KSHV LANA nucl |
| --- | --- | --- |
| CC(=O)n1cc(-c2ccncc2)c2ccccc21 | -0.2 | . |
| CCn1c(SCc2ccccc2OC)nc2cc(S(N)(=O)=O)ccc21 | -1.8 | . |
| CCC(=O)N1CCc2cc(S(=O)(=O)Nc3ccccc3OC)ccc21 | 1.9 | -0.054 |
| COc1ccc(OC)c(NC(=O)c2oc3ccccc3c2NC(=O)CC(C)(C)C)c1 | -0.7 | -0.4 |
| CC(=O)N1CCc2c(sc(NC(=O)c3ccc(Br)s3)c2-c2nc3ccccc3s2)C1 | -3.7 | -0.75 |
| Cc1cc(S(=O)(=O)NC23CC4CC(CC(C4)C2)C3)ccc1-n1cnnn1 | 0.5 | 0.081 |
| c1ccc(C(Cc2nc(-c3cccnc3)no2)c2ccccc2)cc1 | 0.7 | 0.53 |

Compound profiles, as listed above. Order of values: Ab BasE inh | KSHV LANA nucl
Cc1cc(=O)[nH]c(Nc2cccc(Br)c2)n1 as listed: -0.4 | 0.38
COc1cccc(CNC(=O)CN(C)S(=O)(=O)c2ccc3c(c2)CC(C)N3C(C)=O)c1 (configuration not stated) as listed: 0.8 | -0.77
c1ccc(OCCSC2=NCCN2)cc1 as listed: -1.3 | 0.87
O=C(c1cc2ccccc2cc1OCc1nnc(-c2cccs2)o1)N1CCOCC1 as listed: 0.7 | .
CC1CCCC(C)N1C(=S)NCCCN1CCOCC1 (configuration not stated) as listed: 0.1 | .

Source: PubChem
